Prx2 Sm inh: Schistosoma mansoni Prx2 inhibition; Potency, µM; S. mansoni Prx2 activity coupled to TGR/GSH (TGR is thioredoxin glutathione reductase), NADPH fluorescence loss, qHTS; some inactives read as strong as hits; 65,000 compounds, 0.07% hits; active means full or partial inhibition curve with a strong effect at the top dose; inconclusive means weaker partial or single-point curve; inactive means no accepted curve; further: series up to 57 µM; many of its hits are not listed in these tables
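Coupled assay in which S. mansoni TGR passes NADPH reducing equivalents via glutathione to Prx2, which reduces H2O2. Compounds were preincubated 15 min at room temperature with 25 nM TGR/50 nM Prx2 mix. Kinetic NADPH fluorescence loss (ex 365/em 450 nm) was monitored.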
Anthrax LT inh: blocks cellular internalization of anthrax lethal toxin; Cells, anthrax lethal toxin internalization, FRET ratio (460/530); Potency, µM (top dose mostly 40 µM), for inactives: at the top dose activity change, negative = inhibition, hits mostly inhibitors; 70,000 compounds, 0.67% hits; AID 912; active = well fitted falling ratio curve with the 530 nm signal flat; inconclusive = other ratio curves, or a change in one channel alone; inactive = flat curves in the ratio and both channels; the % refers to the ratio; further: on the % scale 0 is the no-effect control and ±100 the full control effect; nearly all actives have a fitted effect of over 50% in size; tested in ME-180 cells; beta-lactamase reporter
Numbers without * were called inactive; ? = inconclusive; / = no result given; & = joins results of further samples; [ ] = dose if it differs, or a comment. Potency means the concentration at half of the fitted maximal effect.

SMILES	Prx2 Sm inh	Anthrax LT inh
CCC(C)C1C(C#N)=C(N)Oc2n[nH]c(C)c21 (stereo not given)	>57	27.5%
CC(=NCCCN1CCCCC1)c1c(O)n(Cc2ccccc2)c(=O)[nH]c1=O	>57	5.7%
Cc1cc(NC(=O)CSc2nnc(-c3ccoc3C)o2)no1	>57	-3.3%
O=C(c1ccccc1F)N1CCN(c2ccccc2F)CC1	>57	-15.3%
CCOC(=O)c1ccccc1NC(=O)c1ccc(NS(C)(=O)=O)cc1	>57	4.9%
CCOC(=O)c1c(C)c(C(=O)N(C)C2CCCCC2)c(C)n1C	>57	2.9%
CCn1c(=N)n(CCOc2ccc(OC)cc2)c2ccccc21	>57	12.5%
COc1cccc(C(O)CC(N)=O)c1 (stereo not given)	>57	/
CCn1cc(C(=O)NCC2CCCO2)c(=O)c2cc(S(=O)(=O)N3CCCCC3)ccc21 (stereo not given)	>57	3.2%
CCCCSc1nnc(-c2ccc(NC(=O)CC)cc2)n1C	>57	-0.2%
CCOC(=O)N1CCN(c2c(F)cc3[nH]c(=S)[nH]c3c2Br)CC1	>57	?
COC(=O)Nc1nnc(CC(=O)Nc2ccccc2C)s1	>57	-1.8%
O=S(=O)(O)c1ccc(O)c2ncccc12.O=S(=O)(O)c1ccc(O)c2ncccc12.[Zn]	>57	-0.6%[8 µM]
COc1ccc(C(=O)COC(=O)Cn2nnc3ccccc32)cc1Br	>57	-4.1%
O=C(O)Cc1ccc(C(=O)c2cccs2)s1	>57	16.0%
CN1CSC(=S)N(C)C1	/	2.9%&-1.8%
COC(=O)Cn1c(=O)sc2ccccc21	>57	10.4%
CC1CN(Cc2nc3c(c(=O)n(C)c(=O)n3C)n2CC(=O)c2ccccc2)CC(C)O1 (stereo not given)	>57	0.9%
O=C(NCc1ccco1)C1CCCN(S(=O)(=O)c2cccc3nsnc23)C1 (stereo not given)	>57	5.7%
COc1ccc(-c2nnn(CC(=O)NC3CCCc4ccccc43)n2)cc1OC (stereo not given)	/	3.1%
O=C(NC1CC1)c1ccc2c(c1)ncn2C1CCCC1	>57	/
CCC(C)(C)n1nnnc1C(c1cccnc1)N1CCCc2ccccc21 (stereo not given)	>57	?
CCN1C(=O)c2ccccc2S(=O)c2ccc(C(=O)NC3CC3)cc21 (stereo not given)	>57	5.0%
Clc1ccccc1N1CCN(c2ncnc3nc[nH]c23)CC1	>57	-2.2%
Cc1ccc(NC(=O)OCC(F)(F)C(F)F)cc1NC(=O)OCC(F)(F)C(F)F	/	-22.9%
SMILES	Prx2 Sm inh	Anthrax LT inh
Cc1c(C#N)c2ccccc2n1CC(=O)N1CCc2ccccc2C1	>57	-15.5%
CCCCn1c(SCC(=O)N2CCOCC2)nnc1-c1cccs1	>57	-9.4%
Cc1ccccc1-c1cc(N2CCNCC2)ncn1	>57	-14.3%
Cc1ccc2cc(C#N)c(NCCNC(=O)C3CCC3)nc2c1C	>57	19.6%
CC(C)(CN1CCCCC1)NS(=O)(=O)c1ccc(Cl)cc1	>57	?
O=C(CN(C(=O)CNS(=O)(=O)c1ccccc1)c1ccc2c(c1)OCCO2)NC1CCCCC1	>57	-15.7%
O=C(O)CC12CSc3[nH]c(=O)sc3C1c1ccccc1OC2=O (stereo not given)	>57	9.6%
Cc1ccc2[nH]c3c(c2c1)CN(C(=O)CN1CCN(c2ccccc2)CC1)CC3	>57	/
CCOC(=O)Cn1c(=NC(=O)CSC(C)=O)sc2ccccc21	>57	13.9%
CC1(C)CC(=O)C=C(NCC2CCCO2)C1 (stereo not given)	>57	0.2%
Cc1ccc(Cn2nnc3c(=O)[nH]c(C4CCN(S(=O)(=O)c5ccccc5)CC4)nc32)cc1	>57	-11.1%
O=C(O)CCn1c(C(=O)O)cc2sccc21	>57	?
CN1CCN(c2nc(-c3ccc4c(c3)OCO4)nc3ccccc23)CC1	>57	-0.6%
Cc1ccc(NC(=O)C2C3CC4OC(=O)C2C4C3)cc1Cl (stereo not given)	>57	3.2%
CC1CN=C(c2cccn2Cc2ccc(F)cc2Cl)O1 (stereo not given)	>57	-20.1%
Cc1cccnc1NC(=O)c1ccc2nc(N)sc2c1	>57	-2.9%
COc1ccc(N2C(=O)C3CCCN3C2c2cccs2)cc1 (stereo not given)	>57	3.6%
CCOC(=O)CN(C(=O)CSc1nnc(COc2ccc(OC)cc2)n1C)c1ccccc1	>57	-10.2%
CCCn1c(C)nc2c(N(CCN(CC)CC)CCN(CC)CC)nc(C)nc21	/	?
Cc1csc2nc(=O)c3ccccc3n12	>57	3.9%
COc1ccc(-n2c(=O)c(-c3ccc(F)c(F)c3)nc3cncnc32)cc1	>57	-10.7%
C=CCn1c(N2CCCC2)nc2c1c(=O)[nH]c(=O)n2C	>57	4.5%
O=C(C1CCN(S(=O)(=O)c2ccc(-n3cnnn3)cc2)CC1)N1CCN(c2ccccc2)CC1	>57	2.1%
CC(C)CCN(C)C1CCN(S(=O)(=O)c2cccc(C(F)(F)F)c2)CC1	>57	7.8%
CN(C)[C@H]1C(=O)C(C(=O)NCN2CCCC2)=C(O)[C@]2(O)C(=O)C3=C(O)c4c(O)cccc4[C@](C)(O)[C@H]3C[C@H]12	>57	-3.4%[8 µM]
SMILES	Prx2 Sm inh	Anthrax LT inh
O=C(CNS(=O)(=O)c1ccc(C(=O)N2CCCCC2)cc1)N1CCCCC1	>57	4.6%
CCOC(=O)CSc1nnc(CNC(=O)c2ccc(OC)cc2)n1-c1ccc(OC)cc1	>57	25.9%
CCN(CC)S(=O)(=O)c1ccc2nnn(OCC(=O)Nc3cccc(C#N)c3)c2c1	/	?
COc1ccccc1-c1c(C)nn2c(N3CCCCCC3)cc(C)nc12	>57	?
CC(=O)Nc1ccc(S(=O)(=O)Nc2ccc(S(=O)(=O)N3CCCCCC3)cc2)cc1	>57	-15.2%
C=CCn1c(O)c(C(C)=Nc2ccc(N(CC)CC)cc2)c(=O)[nH]c1=O	>57	-16.0%
CCc1ccc(NC(=O)Cn2c(=O)oc3cc(S(=O)(=O)N4CCOCC4)ccc32)cc1	>57	-19.7%
CCc1nc2ccccc2n(CC)c1=O	>57	3.6%
COC(=O)[C@@]1(Cc2ccc(F)cc2)[C@H]2c3cc(C(=O)N4CCCC4)n(Cc4ccccn4)c3C[C@H]2CN1C(=O)c1ccccc1	>57	?
COC(=O)CS	/	-8.4%
COc1ccc(C(O)c2coc3ccc(O)c(CN(C)C)c23)cc1 (stereo not given)	>57	-8.8%
COc1ccc(NC(=O)c2ccc(COc3ccccc3Br)o2)cc1OC	>57	?
C=CCn1c(SCc2nc3ccccc3c(=O)[nH]2)nnc1-c1cc2cc(Cl)ccc2o1	>57	9.4%
O=c1c2ccccc2[se]n1-c1ccccc1	>57&>57	?
COc1ccc(-c2nc(CS(=O)CC(=O)NCc3ccc4c(c3)OCO4)c(C)o2)cc1 (stereo not given)	>57	-5.2%
COC(=O)N1CCC2(CC1)CN(C(=O)Nc1cccc(F)c1)C2	>57	1.9%
Cc1oc2cc(OC(C)C(=O)O)ccc2c(=O)c1Oc1ccccc1 (stereo not given)	>57	?
Cc1ccc(-c2cc(C(F)(F)F)nn2-c2ccc(S(N)(=O)=O)cc2)cc1	/	-14.4%
COc1ccc(-n2c(Cc3cccn3C)nnc2SCC(=O)Nc2ccc(F)cc2)cc1	/	-7.7%
COC(=O)c1ccccc1NC(=O)CN1CCC(NC(=O)c2ccccc2C)CC1	>57	-14.7%
N#Cc1ccc(COC(=O)c2ccc3c(=O)[nH]c(CN4CCOCC4)nc3c2)cc1	>57	-7.4%
CCN(CC)S(=O)(=O)c1ccc2[nH]cc(C(=O)NCCN3CCCCC3C)c(=O)c2c1 (stereo not given)	>57	6.2%
N#Cc1c(-c2ccco2)cc(C2CC2)nc1SCC(=O)c1ccccc1	>57	5.7%
Cc1cc(=O)[nH]c(SCc2nc3ncccn3c2Br)n1	>57	1.8%
C=CCn1c(SCC(=O)Nc2cc(NC(C)=O)ccc2OC)nnc1-c1cccnc1	>57	-11.9%

Structures listed so far with an aryl thioether with sulfur outside any ring, in the order listed:
SMILES	Prx2 Sm inh	Anthrax LT inh
Cc1cc(NC(=O)CSc2nnc(-c3ccoc3C)o2)no1	>57	-3.3%
CCCCSc1nnc(-c2ccc(NC(=O)CC)cc2)n1C	>57	-0.2%
CCCCn1c(SCC(=O)N2CCOCC2)nnc1-c1cccs1	>57	-9.4%
CCOC(=O)CN(C(=O)CSc1nnc(COc2ccc(OC)cc2)n1C)c1ccccc1	>57	-10.2%
CCOC(=O)CSc1nnc(CNC(=O)c2ccc(OC)cc2)n1-c1ccc(OC)cc1	>57	25.9%
C=CCn1c(SCc2nc3ccccc3c(=O)[nH]2)nnc1-c1cc2cc(Cl)ccc2o1	>57	9.4%
COc1ccc(-n2c(Cc3cccn3C)nnc2SCC(=O)Nc2ccc(F)cc2)cc1	/	-7.7%
N#Cc1c(-c2ccco2)cc(C2CC2)nc1SCC(=O)c1ccccc1	>57	5.7%
Cc1cc(=O)[nH]c(SCc2nc3ncccn3c2Br)n1	>57	1.8%
C=CCn1c(SCC(=O)Nc2cc(NC(C)=O)ccc2OC)nnc1-c1cccnc1	>57	-11.9%

(further entries)
SMILES	Prx2 Sm inh	Anthrax LT inh
CCOC(=O)N1CCN(C(=O)C2CCN(c3ncnc4c3sc3cccc(F)c34)CC2)CC1	>57	-12.5%
C=CCN1CCC2(C)c3cc(O)ccc3C[C@H]1[C@H]2C	>25.6&>57&>57	-21.4%&-3.7%&-1.6%
COc1ccc(-c2coc3ccc(O[C@@H]4O[C@@H](COC(C)=O)[C@@H](OC(C)=O)[C@@H](OC(C)=O)[C@H]4OC(C)=O)c(OC(C)=O)c3c2=O)cc1	>57	-6.9%
Cc1cc(NC(=O)c2cc(C)on2)n(-c2ccccc2)n1	>57	7.5%
CC(=O)OCc1ccco1	/	1.4%
CCOC(=O)Nc1nc(-c2ccccc2)c(C)s1	>57	-6.3%[8 µM]
CCC(=O)Nc1nc2ccc(NC(C)=O)cc2s1	>57	-7.8%
CCOc1ccccc1NC(=O)C1CCN(S(=O)(=O)c2c(C)noc2C)CC1	>57	-5.7%
CC1CN(Cc2nc3c(c(=O)n(C)c(=O)n3C)n2CCCc2ccccc2)CC(C)O1 (stereo not given)	>57	3.3%
O=C(COc1ccccc1)NCCc1nc2ccccc2[nH]1	/	-8.4%
CC(C)(C)C(=O)/C=C(\N)c1ccccn1	/	-3.2%
Cc1cnc(C)c(N2CCC(C(=O)NCc3cccs3)CC2)n1	>57	-2.1%
CCOc1ccc(/C(O)=C2/C(=O)C(=O)N(CCOCCO)C2c2ccccc2)cc1 (stereo not given)	>57	?
CCOC(=O)N1CCN(CC(=O)Nc2c(C(=O)OC)[nH]c3ccccc23)CC1	>57	0.5%
COCCn1c(C)cc(C(=O)CSc2ccc(NC(C)=O)cc2)c1C	>57	-17.4%
Cc1nc2ncnn2c(N2CCN(C(=O)Cc3cccs3)CC2)c1C	>57	9.4%
CCOC(=O)c1ccc(NC(=O)c2ccc(C)c(S(=O)(=O)N3CCOCC3)c2)cc1	?	12.6µM*
Cn1c(=O)c2c(nc(OCc3cccnc3)n2Cc2c(F)cccc2Cl)n(C)c1=O	>57	-3.9%
COc1ccc(N2C(=O)CC(N3CCN(c4ccccc4F)CC3)C2=O)cc1 (stereo not given)	/	-9.8%
COc1cccc(C(c2sc3ncnn3c2O)N2CC(C)OC(C)C2)c1 (stereo not given)	>57	-19.6%
CCn1c(=O)c2c3c(sc2n(C)c1=O)CCC3	>57	4.6%
CC1CCCCN1CCCNC(=O)C1CCN(c2nc3ccccc3o2)CC1 (stereo not given)	>57	-4.6%
O=C(CSc1nc2ccccc2c(=O)n1Cc1ccco1)NCc1ccco1	>57	-13.6%
COc1ccc2[nH]c(=O)c(CN(CC3CCCO3)C(=O)Nc3ccccc3)cc2c1 (stereo not given)	>57	0.6%
Cc1ccccc1Cn1cc(/C=N/n2cnnc2)c2ccccc21	/	-23.8%
SMILES	Prx2 Sm inh	Anthrax LT inh
CC(=O)Cc1ccccc1OCC(=O)O	>57	13.3%
CCOc1cc(-c2c(C#N)c(N)nc3c2CCCC3)ccc1O	>57	10.0%
CCOC(=O)c1sc(NCC2CCCO2)nc1C (stereo not given)	>57	?
COC(=O)c1ccc(C(=S)N2CCOCC2)cc1	>57	-10.3%
CCC(NC(=O)NCCCn1ccnc1)(C(F)(F)F)C(F)(F)F	>57	-15.5%
CCC(=O)c1ccc(OCC(O)CN2CCN(c3cccc(C(F)(F)F)c3)CC2)cc1 (stereo not given)	/	-8.6%
COCC(=O)N1CCC[C@@]2(CCN(Cc3cc(C(F)(F)F)cc(C(F)(F)F)c3)C2)C1	>57	-2.2%
O=C(CN1CCN(c2ccc(Cl)cc2)CC1)c1ccc2c(c1)OCO2	>57	-9.7%
COC(=O)C1(C)NC(c2cccs2)C2C(=O)N(c3ccccc3F)C(=O)C21 (stereo not given)	>57	-0.7%
Cc1cccc(/N=C/c2c(O)cc(C)oc2=O)n1	>57	-2.6%
CN(C)CCNC(=O)c1ccccc1-c1ccccc1	>57	-1.3%
OC1(c2ccc(Br)cc2)CCNCC1	>57	-10.0%
CC1Cc2nc(SCC(=O)Nc3nccs3)n(C)c(=O)c2S1 (stereo not given)	>57	?
COc1ccc(N2CCN(C(=O)Cn3c(=O)[nH]c4ccsc4c3=O)CC2)cc1	>57	10.8%
C[C@@]12CC[C@@H]3[C@H](CCC4=CC(=O)CC[C@]43C)[C@@H]1CC[C@@H]2C(=O)COS(=O)(=O)c1ccc(Br)cc1	>57	-4.5%[8 µM]
O=c1nc(N2CCOCC2)ccn1Cc1ccc(Br)cc1	>57	-5.1%

Screening data as filed in PubChem.

These rows are one share of the data. The share of hits here may be higher or lower than overall.
